Screening results (PubChem BioAssay)
Bead autofluor – compound fluorescence in toxin protease inhibitor counterscreen; compound autofluorescence counterscreen, microsphere flow cytometry; stronger effect = higher value; fluorescence intensity (test concentration not listed); 360,000 tested, 3.1% active; AID 624483;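 active = at least 3 SD above the mean of all compounds, about 16000 in these data; inconclusive = too few beads counted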;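 also: 100 nL of 1 mM stock went into each well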
Sa RN4220 lethal – S. aureus RN4220 growth inhibition; AID 1259311; OD600, 16 h; inhibition, % (no concentration beside the values); 330,000 tested, 0.33% active;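 active = z-score of -3 or lower and OD600 up to 0.18 on both plates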;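 also: plate controls were untreated cells for no effect and reference antibiotic for full effect; stock transfer was 100 nL into about 80 µL; one replicate is shown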
ugtP null kill – compounds lethal to S. aureus RN4220 ugtP deletion mutant | OD600 growth, 16 h; some inactives read as strong as hits | growth inhibition, % (no concentration beside the values) | 330,000 tested, 0.54% active;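 active = z-score under -3 and OD600 up to 0.15 on both plates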;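 also: plate controls were untreated wells for no effect and antibiotic for full effect; wells of about 80 µL received 100 nL stock; the first replicate is given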
Mtb hypoxia inh – Mtb hypoxia fluorescent reporter inhibition. M. tuberculosis hypoxia-regulated fluorescent reporter, fluorescence. fluorescence inhibition, % (concentration not given with the values). 300,000 tested, 0.1% active;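 active = 35 to 45% if threefold the growth effect, above 45% if 1.5-fold the growth effect; inactive = the rest, general growth blockers included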;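 also: wells of about 50 µL received 100 nL stock; 0% = vehicle wells and 100% = reference inhibitor wells; whole bacteria with a GFP reporter of the hypoxia response; strong numbers were not always called active; many hits fall short of the cut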
PrP UTR inh – inhibition of PrP 5' UTR reporter expression. inhibition, % (no concentration beside the values). 340,000 tested, 0.35% active. cell-based PrP 5' UTR mRNA reporter, plate reader. AID 488862;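 active = every replicate at 50% or more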;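 also: 0 = median of the neutral control wells; tested in H4 reporter cells; numbers are from one replicate; inactives centre near -14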
BJeLR lethal – kills HRASV12-expressing BJeLR cells | BJeLR (HRASV12) viability, CellTiter-Glo ATP luminescence, 48 h; reference of the scale not given here | 300,000 tested, 0.17% active | inhibition, % (no concentration beside the values);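 active = replicate mean above 50%; inconclusive = above 50% but judged a plate artefact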;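 also: 50 nL library stock added to about 25 µL; numbers are from one replicate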
Mtb hypoxia inh growth – second read-out of Mtb hypoxia inh, no call of its own (marks repeat the call); growth inhibition, %; measured here: M. tuberculosis growth (absorbance);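 0% = vehicle and 100% = reference antibiotic; read after six days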
Active calls of the source: *; ? = inconclusive; . = no result given.

entry	Molecule	Bead autofluor	Sa RN4220 lethal	ugtP null kill	Mtb hypoxia inh
1	CN(Cc1ccccc1)C(=O)c1cccc(NC(=O)Cc2ccc(NC(=O)C3CCN(C(=O)C4CCC4)CC3)cc2)c1	3734	4.7	-4	-9
2	COc1ccc(CC(=O)Nc2ccc(-c3noc(-c4ccccc4OC)n3)cc2)cc1	22431*	0.5	-3	-2
3	CCC(CC)C(=O)Nc1cccc(SC)c1	.	8.9	7	6
4	CN1CCN(C(=O)C2=CC(c3ccc4c(c3)OCO4)CC(OCCCCO)O2)CC1 (configuration not stated)	.	3.8	-11	11
5	CCOC(=O)C1NN=C(C(=O)c2ccccc2)C1c1ccc(OC)cc1 (configuration not stated)	4346	8.9	3	7
6	CCOC(=O)N1CCC(NC(=O)c2ccc(N3CCC4(CC3)OCCO4)c([N+](=O)[O-])c2)CC1	3700	-2.4	-2	-6
7	CC(=O)Nc1ccc(S(=O)(=O)NNC(=O)c2cccc3ccccc23)cc1	2039	6.3	6	.
8	CC(=O)OCC(=O)[C@@]12OC3(CCCC3)OC1CC1C3CCC4=CC(=O)C=C[C@]4(C)[C@@]3(F)C(O)C[C@@]12C (some centres not stated)	.	0.4	-10	-4
9	COc1ccc(CCN2C(=S)N(C)C(=O)C2CC(=O)Nc2ccc(OC)cc2)cc1 (configuration not stated)	4237	-0.7	-7	-5
10	CC(Sc1ccsc1[N+](=O)[O-])C(=O)NCc1ccco1 (configuration not stated)	2033	9.4	6	11
11	O=c1c2ccccc2nc(-c2ccc(-c3ccccc3)cc2)n1-c1ccncc1	10461	4.5	2	-2
12	CCOCCCNC(=O)C(c1ccccc1)N(Cc1cccs1)C(=O)c1ccccc1O (configuration not stated)	4511	10	-2	-1
13	COc1cnc(-c2ccccn2)nc1Oc1cccc(C(F)(F)F)c1	3640	.	.	.
14	Cc1ccccc1-n1ncc(C(C)NS(=O)(=O)c2ccccc2Cl)c1C (configuration not stated)	6452	3.9	-1	-1
15	CC(C)(C)C(=O)Nc1cccc(C(=O)c2cccc(NC(=O)C(C)(C)C)c2)c1	3026	1.9	7	.

entry	Mtb hypoxia inh growth	PrP UTR inh	BJeLR lethal
1	3	-16	.
2	2	-14	3
3	9	.	1
4	11	.	.
5	16	-25	-3
6	10	-1	1
7	.	10	14
8	-7	.	.
9	1	-35	5
10	19	3	-8
11	4	-22	5
12	9	-5	0
13	.	-5	5
14	7	6	2
15	.	-8	-5

Reprinted at random: 5 records from the list
entry	Molecule	Bead autofluor	Sa RN4220 lethal	ugtP null kill	Mtb hypoxia inh
10	CC(Sc1ccsc1[N+](=O)[O-])C(=O)NCc1ccco1 (configuration not stated)	2033	9.4	6	11
13	COc1cnc(-c2ccccn2)nc1Oc1cccc(C(F)(F)F)c1	3640	.	.	.
3	CCC(CC)C(=O)Nc1cccc(SC)c1	.	8.9	7	6
2	COc1ccc(CC(=O)Nc2ccc(-c3noc(-c4ccccc4OC)n3)cc2)cc1	22431*	0.5	-3	-2
6	CCOC(=O)N1CCC(NC(=O)c2ccc(N3CCC4(CC3)OCCO4)c([N+](=O)[O-])c2)CC1	3700	-2.4	-2	-6

entry	Mtb hypoxia inh growth	PrP UTR inh	BJeLR lethal
10	19	3	-8
13	.	-5	5
3	9	.	1
2	2	-14	3
6	10	-1	1

Remaining list, next part
entry	Molecule	Bead autofluor	Sa RN4220 lethal	ugtP null kill	Mtb hypoxia inh
16	Cc1cc(C)cc(N2C(=O)CC(N3CCOCC3)C2=O)c1 (configuration not stated)	10300	8.6	7	16
17	O=C(Cn1nc(-c2cccc(Cl)c2)ccc1=O)NCC1COCCO1 (configuration not stated)	.	5.0	7	-11
18	Cc1cc(N2CCOCC2)ccc1/C=C1\NC(=O)N(Cc2ccccc2)C1=O	2346	.	.	.
19	O=C(NCC(=O)N(Cc1ccc(F)cc1)C(C(=O)NCC1CCCO1)c1ccccc1)c1ccco1 (configuration not stated)	4098	1.4	-2	10
20	Cc1c(O)c(=O)ccn1Cc1ccccc1	3940	1.7	3	8
21	O=C(COC(=O)CNC(=O)c1ccc(Cl)cc1Cl)NNC(=O)c1ccccc1	3441	2.7	5	14
22	CCN(CC)CCCNC(=O)c1ccccc1C	?	-0.6	-6	-1
23	CCOC(=O)c1c(NC(=O)CN2CCOCC2)sc2c1CCCC2	3220	4.7	11	2
24	C/C(=C\c1ccccc1)C1NC(=O)c2c(sc3c2CCCC3)N1 (configuration not stated)	2135	3.8	-3	11
25	O=C(COC(=O)c1cc(=O)[nH]c2ccccc12)Nc1ccc(Cl)cn1	5336	1.9	4	0
26	COc1ccc(C(=O)N/C(=C/c2cccnc2)C(=O)N2CCOCC2)cc1OC	4273	1.6	3	-9
27	COc1ccc(COCC(O)CN(Cc2ccco2)Cc2ccccc2O)cc1 (configuration not stated)	10476	7.1	8	2
28	CCOC(=O)c1sc(NC(=O)c2ccco2)nc1C	2846	1.2	7	.
29	CCOC(=O)Cc1csc(NC(=O)CSc2nnc(-c3ccncc3)o2)n1	4305	1.3	1	.
30	C=CCn1nnnc1SCC(=O)Nc1cccc(C(F)(F)F)c1	4146	2.3	6	10

entry	Mtb hypoxia inh growth	PrP UTR inh	BJeLR lethal
16	-1	-23	-6
17	-14	-17	-12
18	.	3	2
19	-4	-6	-1
20	9	-25	11
21	5	-17	.
22	11	-8	-6
23	1	-3	3
24	10	-21	6
25	-1	-14	1
26	3	-50	0
27	4	-29	-6
28	.	-30	9
29	.	-21	-1
30	-1	-14	-7

The list continues.
entry	Molecule	Bead autofluor	Sa RN4220 lethal	ugtP null kill	Mtb hypoxia inh
31	Cc1cc2c(OCC(O)CN3CCCCC3)cccc2[nH]1 (configuration not stated)	4425	2.6	2	1
32	O=C(NCCN1CCOCC1)c1ccc(N2CCCC2)c([N+](=O)[O-])c1	2181	1.5	2	9
33	CC(=O)N1N=C(c2ccccc2)CC1c1cccc([N+](=O)[O-])c1 (configuration not stated)	3748	0.7	1	12
34	CN(C(=O)COc1ccc(Cl)cc1)C1(C)CCS(=O)(=O)C1 (configuration not stated)	5201	1.1	2	-4
35	Cc1nn(CC(=O)NCc2cccs2)c(=O)c2nn(-c3ccccc3)c(C)c12	6190	4.7	3	13
36	COc1ccc(-c2c(C)nn3c(C)cc(C)nc23)cc1	3234	8.0	5	11
37	Cc1cc(C)n(-c2ccc(NC(=O)C3CCCCN3Cc3cccc4c3OCO4)cc2)n1 (configuration not stated)	5310	1.7	-1	3
38	O=C(Oc1ccc2cccc(OC(=O)N3CCOCC3)c2c1)N1CCOCC1	5113	0.5	2	.
39	CCOC(=O)C(=NNc1cccc(C(F)(F)F)c1)N(CCOC)CCOC	.	3.0	3	-2
40	Cc1ccc(C)c(C2=CSC3=NCCN23)c1	2968	-1.0	10	.
41	COc1ccc(NC(=O)Cc2nnc(SCC(=O)c3ccc(F)cc3)n2C)cc1	3903	4.3	4	1
42	CC(CC(=O)Nc1ccccc1F)=NNC(=O)Cc1ccc(Cl)cc1	.	8.3	2	12
43	CC1CC[C@]2(C(=O)OC3OC(CO)C(O)C(O)C3O)CC[C@]3(C)C(=CCC4[C@@]5(C)CCC(OC6OCC(O)C(OC7OC(CO)C(O)C(O)C7O)C6O)C(C)(C)C5CC[C@]43C)C2[C@]1(C)O (some centres not stated)	.	6.7	-2	9
44	O=C(NC1CCCC1)C(c1cc2c(cc1[N+](=O)[O-])OCO2)N1CCCC1 (configuration not stated)	4171	-1.2	-1	7
45	CC(C)(C)C(=O)C=c1[nH]c(=O)c(=Cc2ccccc2F)s1	.	-13	3	5

entry	Mtb hypoxia inh growth	PrP UTR inh	BJeLR lethal
31	-3	-8	-4
32	0	-3	9
33	15	-25	-2
34	8	-23	-5
35	2	6	-6
36	6	-7	7
37	-9	-21	14
38	.	-6	5
39	4	.	.
40	.	-13	-3
41	0	-45	-18
42	8	.	.
43	11	.	.
44	-1	-37	-1
45	2	.	.

Additional records follow:
entry	Molecule	Bead autofluor	Sa RN4220 lethal	ugtP null kill	Mtb hypoxia inh
46	CN(/N=C/c1ccccc1)C(=S)c1ccccc1	5188	.	.	.
47	CCc1nnc(NC(=O)OCc2ccccc2)s1	7559	5.2	7	11
48	Cc1cccc(-n2nnnc2SCC(=O)c2cc(C)n(Cc3ccco3)c2C)c1	22516*	-3.1	-3	-2
49	Cc1ccc(C)c(SCC(=O)NNC(=O)c2csc(N3CCOCC3)n2)c1	6270	1.5	3	15
50	CC1(C)NC(=O)N(CCOCCOc2ccccc2)C1=O	4105	.	.	.
51	COc1ccc(C)cc1NC(=O)CN(Cc1nnc(-c2ccc(Cl)cc2)o1)C1CCCC1	4333	17	-11	14
52	O=C(Cn1c(=O)oc2cc(S(=O)(=O)N3CCCC3)ccc21)Nc1ccccc1Br	4082	-1.3	-7	-14
53	COc1ccc(-c2ccccc2)cc1NCc1ccccc1C	2385	-8.6	43	7
54	CCCC(=O)c1ccc(N2CCCCC2)c(F)c1	2781	17	31	-3
55	CCCN(CC(=O)Nc1ccccc1C)C(=O)C1CCN(S(=O)(=O)c2ccccc2C(F)(F)F)CC1	?	5.5	6	3
56	Cc1ccc(NC(=O)CSc2nc3[nH]ncc3c(=O)[nH]2)cc1	4368	-0.5	-1	0
57	COC(=O)C(Cc1cnc(Cl)s1)(C(=O)OC)c1ccc(C(F)(F)F)cc1[N+](=O)[O-]	4520	3.9	5	.
58	CCOC(=O)Cn1nnnc1C(CC)N(Cc1cc2ccc(C)cc2[nH]c1=O)C1CCCC1 (configuration not stated)	2921	4.3	6	8
59	Cc1cccc(NC(=S)N(C)C2CCCCC2)c1	3341	-2.8	0	-3
60	Cc1cccc(COCC(Cc2ccccc2)N2CCN(C(=O)c3cc(Cl)cc(Cl)c3)CCC2=O)c1 (configuration not stated)	4025	-1.1	-21	3

entry	Mtb hypoxia inh growth	PrP UTR inh	BJeLR lethal
46	.	-16	0
47	6	-40	-8
48	0	-37	0
49	2	-6	1
50	.	-10	-7
51	10	-26	-2
52	2	-15	-1
53	-1	-15	-1
54	0	-90	1
55	2	-15	4
56	9	-9	-4
57	.	-7	9
58	4	2	6
59	1	-11	-13
60	12	-16	-6

Other entries.
entry	Molecule	Bead autofluor	Sa RN4220 lethal	ugtP null kill	Mtb hypoxia inh
61	CC1CCN(C(=O)COC(=O)c2ccccc2NC(=O)c2ccco2)CC1	3397	0.9	0	-5
62	Cc1cc(C)c(C(N)=O)c(Nc2ccc(F)cc2)n1	3992	4.7	9	17
63	CN(CCCC(=O)N1CCCC(C(N)=O)C1)S(=O)(=O)c1ccc(F)cc1 (configuration not stated)	3614	4.0	3	-4
64	COc1cc(C(=O)N[C@H](C(=O)OCC(=O)NC2CCCCCC2)C(C)C)cc(OC)c1OC	6405	2.5	7	8
65	CCc1ccc(NC(=O)C(=O)NCC2CCCN2S(=O)(=O)c2cccs2)cc1 (configuration not stated)	?	1.9	13	4
66	COc1ccccc1N(CC(=O)NCc1ccc(F)cc1)C(=O)CCC(=O)Nc1ccccn1	4667	3.2	0	4
67	CC(C)CCNC(=O)C1CCCN(S(=O)(=O)c2ccc3c(c2)CC(C)N3C(=O)C2CC2)C1 (configuration not stated)	.	3.0	0	-2
68	CCOc1ccccc1NC(=O)CCN1CCN(S(=O)(=O)c2ccc(OC)cc2)CC1	4873	-1.3	5	.
69	COc1ccc(C(=O)Oc2ccc(C=NNC(=O)c3cccnc3)cc2OC)cc1	.	1.3	8	6
70	CCOC(=O)N1CCC(NC(=O)c2ccc(CS(=O)(=O)c3ccccc3C)o2)CC1	5739	-6.1	4	4

entry	Mtb hypoxia inh growth	PrP UTR inh	BJeLR lethal
61	12	-29	0
62	5	-55	-18
63	0	-13	-1
64	8	.	.
65	10	-6	-6
66	-3	-26	2
67	5	-21	-2
68	.	-1	-10
69	2	.	.
70	2	-30	9

Arranged by heavy-atom count (falling): part of the list above
entry	Molecule	Bead autofluor	Sa RN4220 lethal	ugtP null kill	Mtb hypoxia inh
64	COc1cc(C(=O)N[C@H](C(=O)OCC(=O)NC2CCCCCC2)C(C)C)cc(OC)c1OC	6405	2.5	7	8
67	CC(C)CCNC(=O)C1CCCN(S(=O)(=O)c2ccc3c(c2)CC(C)N3C(=O)C2CC2)C1 (configuration not stated)	.	3.0	0	-2
68	CCOc1ccccc1NC(=O)CCN1CCN(S(=O)(=O)c2ccc(OC)cc2)CC1	4873	-1.3	5	.

entry	Mtb hypoxia inh growth	PrP UTR inh	BJeLR lethal
64	8	.	.
67	5	-21	-2
68	.	-1	-10

Rows were taken by chance; overall some 3.9% were active at least once.
